# Tg IFNy HTS: inhibitors of Toxoplasma gondii growth with IFN-gamma | 69,000 compounds, 3.8% hits | activity change, negative = inhibition, %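 (about 20 µM by stock and volumes)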 | Toxoplasma gondii growth in IFN-gamma-treated host cells; hits give low values; reference of the scale not given here | AID 1259416;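 active = below -70%; inconclusive = fit judged invalid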;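 note: host cells are HeLa cells infected with Toxoplasma gondii; parasite growth read as luciferase light; one replicate is shown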
# Starred values were filed as active, the others as inactive; i = inactive; u = inconclusive.
# Sample of the layout (seven entries):
entry	SMILES	Tg IFNy HTS
1	O=c1/c(=C\c2ccc(F)cc2)sc2n1C(c1cccs1)C1=C(N=2)c2ccccc2CC1 (stereo not drawn)	38
2	NCC[C@H]1CC[C@H](NC(=O)NC2CCCCC2)[C@H](CO)O1	-5
3	O=C(Oc1ccc2c(-c3ccccc3)cc(=O)oc2c1)c1ccccc1	19
4	CCc1ccccc1S(=O)(=O)N1CCc2nc(-c3ccc(OC)cc3)sc2C1	-92*
5	CN1CCOC2(CCCN(S(=O)(=O)c3ccccc3F)C2)C1 (stereo not drawn)	31
6	O=C(NCCCOc1cccnc1)C1CCC(O)CC1 (stereo not drawn)	0
7	Cn1nccc1C(=O)C1CCN(C(=O)CSc2nc3ccccc3s2)CC1	1

# The listing, from the start:
entry	SMILES	Tg IFNy HTS
1	O=c1/c(=C\c2ccc(F)cc2)sc2n1C(c1cccs1)C1=C(N=2)c2ccccc2CC1 (stereo not drawn)	38
2	NCC[C@H]1CC[C@H](NC(=O)NC2CCCCC2)[C@H](CO)O1	-5
3	O=C(Oc1ccc2c(-c3ccccc3)cc(=O)oc2c1)c1ccccc1	19
4	CCc1ccccc1S(=O)(=O)N1CCc2nc(-c3ccc(OC)cc3)sc2C1	-92*
5	CN1CCOC2(CCCN(S(=O)(=O)c3ccccc3F)C2)C1 (stereo not drawn)	31
6	O=C(NCCCOc1cccnc1)C1CCC(O)CC1 (stereo not drawn)	0
7	Cn1nccc1C(=O)C1CCN(C(=O)CSc2nc3ccccc3s2)CC1	1
8	CC1CCCCN1Cc1cccc(NC(=O)Cc2ccc3nc[nH]c3c2)c1 (stereo not drawn)	3
9	Cc1nc(-c2nc(C(=O)N(C)c3ccccc3)c3ccccn23)cn1C(C)C	27
10	CC(C)NC(=O)N1C[C@H]2[C@H](C(=O)N(C)Cc3ccccn3)CCS(=O)(=O)[C@H]2C1	7
11	Cc1cc(-n2cnnc2)ncc1-c1cccc2ccnn12	1
12	Cc1cnc(C(=O)N2CCC3(CCCN3Cc3cccnc3)CC2)cn1	2
13	N#Cc1ccc(CN2CC[C@]3(CCC[C@@H]3C(=O)N3CCOCC3)C2)cc1	-18
14	O=C(O)CCS(=O)(=O)c1cccc2cccnc12	7
15	CCOc1ccc(-c2nc(Cn3nnc(C(=O)Nc4cc(C)cc(C)c4)c3C)c(C)o2)cc1	-53
16	CC(=O)N1CCOCC12CCN(Cc1csc(C)n1)CC2	2
17	CCOc1ccc(N(Cc2nc(-c3ccccc3OCC)oc2C)S(=O)(=O)c2cccs2)cc1	-36
18	C[C@@H]1CN([C@@H](C)CO)C(=O)Cc2cc(NS(=O)(=O)c3ccc(F)cc3)ccc2O[C@@H]1CN(C)Cc1ccncc1	-31
19	Cc1cc(C)n(C2CCN(C(=O)c3coc(COc4cccc5cccnc45)n3)C2)n1 (stereo not drawn)	0
20	CC(CN(C)Cc1cc2c(cc1Cl)OCO2)N1CCOCC1 (stereo not drawn)	58
21	CN1CCN(C(=O)C[C@@H]2CC[C@@H]3[C@@H](COc4ccc(NC(=O)c5cccs5)cc4C(=O)N3C)O2)CC1	19
22	O=C(C[C@H]1CC[C@@H]2[C@H](COC[C@H](O)CN2Cc2ccc3c(c2)OCO3)O1)N1CCCCC1	5
23	COc1ccccc1Nc1nc(-c2nnc(-c3cccc(C)c3)o2)nc2ccccc12	-86*
24	O=C(NCCc1csc(-c2cccc(F)c2)n1)C(=O)Nc1ccc(F)c(Cl)c1	-39
25	COCCCN1CCc2nc(SCc3nc(-c4ccccc4OC)oc3C)[nH]c(=O)c2C1	-11

# 3 compounds from above, arranged by heavy-atom count, lowest first.
entry	SMILES	Tg IFNy HTS
8	CC1CCCCN1Cc1cccc(NC(=O)Cc2ccc3nc[nH]c3c2)c1 (stereo not drawn)	3
4	CCc1ccccc1S(=O)(=O)N1CCc2nc(-c3ccc(OC)cc3)sc2C1	-92*
23	COc1ccccc1Nc1nc(-c2nnc(-c3cccc(C)c3)o2)nc2ccccc12	-86*

# (continued)
entry	SMILES	Tg IFNy HTS
26	C=CCc1ccccc1OCCN(C)C(=O)c1occc1C	-21
27	Nc1ccccc1C(=O)NCC1CCCO1 (stereo not drawn)	-4
28	COc1ccc(C#Cc2cccc(-c3nc(C(=O)N4CCN(Cc5ccccc5)CC4)cc4c3[C@H](CCO)N(S(=O)C(C)(C)C)C4)c2)cc1OC (stereo partly drawn)	-50
29	COc1ccc(OC)c(-c2noc(-c3c(O)c4cc(C)ccc4[nH]c3=O)n2)c1	83
30	CC1(C)Cc2cccc(OCC(=O)O)c2O1	67
31	O=C(NC1CCCCC1)N1CC2(C1)[C@H](c1ccccc1)[C@H](CO)N2CC1CCCC1	-40
32	COc1ccccc1-c1nc(-c2cccc(NC(=O)c3ccco3)c2)no1	309
33	COC(=O)c1cc(C)nc2c1c(=O)nc(SCc1nc(-c3cccc(C)c3)oc1C)n2C1CC1	i
34	CCCCS(=O)(=O)N1CCCC2(C1)Nc1cccnc1NC2=NCc1ccccc1 (stereo not drawn)	31
35	O=S(=O)(Oc1ccc2nonc2c1)c1ccc(Cl)cc1Cl	66
36	CC(C)Cc1nc2cc(NS(=O)(=O)N(C)C)cc(C(=O)N3CCOc4ccccc4C3)c2n1C	7
37	O=C(C[C@H]1CC[C@H]2NC[C@H](O)COC[C@@H]2O1)NCc1ccc2c(c1)OCO2	-1
38	CNC(=O)C1CCCC12CCN(Cc1cn(C)nc1C)C2 (stereo not drawn)	37
39	CCc1ccc(C(=O)Nc2ccc3c(c2)CCC(=O)N3CCOC)cc1	-74*
40	CCOC(=O)c1c(N(C(C)=O)C(C)=O)sc(=S)n1-c1ccccc1	15
41	COc1ccc(C2CCCN2S(=O)(=O)c2cnc(NC(C)=O)s2)cc1OC (stereo not drawn)	1
42	CCOc1ccc(-c2nc(Cn3nnc(C(=O)Nc4cc(C)cc(C)c4)c3C)c(C)o2)cc1OC	-1
43	Cc1ccc(NC(=O)CC(=O)N2CCCC(c3nc(CC(C)C)no3)C2)cc1 (stereo not drawn)	25
44	C/C=C/c1ccc([C@@H]2[C@H](CO)N(C(C)=O)[C@H]2CN(C(C)=O)C2CCCC2)cc1	-8
45	COc1ccc(CN(CCC(c2ccccc2)c2ccc(OC(C)C)cc2)C(=O)CCl)cc1OC (stereo not drawn)	0
46	Cc1cc2nc(CCNC(=O)c3ccnc(N4CCN(C)CC4)c3)[nH]c2cc1C	4
47	COc1ccccc1-n1cc(CNC2CCSC2)cn1 (stereo not drawn)	5
48	CN(C)c1ccc2ncnc(N3CCN(C(=O)Nc4ccc(Cl)cc4)CC3)c2c1	33
49	COc1ccc(N2CCN(CCCNC(=O)C3=C(C)C(=O)OC34CCN(C(C)=O)CC4)CC2)cc1	60
50	CCc1cnc(N2CCC3(CC2)NC(=O)CC3c2ccncc2)nc1 (stereo not drawn)	-7
51	Cc1[nH]c2ccccc2c1CCNC(=O)c1cccs1	29
52	CC(C)c1ncc(CN2CCCC(CO)C2)cn1 (stereo not drawn)	19
53	CN1CCN(C(=O)c2ccnc(N3CCC4(CCNCC4)CC3)c2)CC1	2
54	CCS(=O)(=O)N1CC2(CN(C(=O)c3ccc(F)cc3)[C@@H](CO)c3[nH]c4cc(OC)ccc4c32)C1	184
55	Cc1ccc(NC(=O)Cn2ncc3c(N4CCCC4)ncnc32)c(C)c1	-47
56	CCOc1ccc(-c2nc(CN(c3ccc(OCC)cc3)S(=O)(=O)c3ccccc3)c(C)o2)cc1	18
57	CN(CC1CCCN1C)c1ccnc(C(=O)NCc2cccnc2)c1 (stereo not drawn)	-6
58	O=C(CC1N=C2c3ccccc3N=C(SCc3ccccc3F)N2C1=O)NCc1cccs1 (stereo not drawn)	-1
59	C[C@@H]1CN([C@H](C)CO)S(=O)(=O)c2ccc(C#Cc3ccccc3F)cc2O[C@@H]1CN(C)C(=O)Cc1cccnc1	-99*
60	COc1ccc(-c2nc(C)c(CCNS(=O)(=O)c3cccc([N+](=O)[O-])c3)s2)cc1	i
61	COc1ccc(C2(O)CCC(N3CC[C@@H](NC(=O)CNC(=O)c4cccc(C(F)(F)F)c4)C3)CC2)cn1 (stereo partly drawn)	9
62	C/C=C/c1ccc(C2[C@@H]3CN(S(=O)(=O)c4ccccc4F)C[C@H]2N3)cc1 (stereo partly drawn)	-52
63	CCS(=O)(=O)N1C[C@H]2CCC[C@]2(COc2ccccn2)C1	-10
64	CCc1cc(/C(Cc2ccccn2)=N\O)c(O)cc1O	4
65	CCS(=O)(=O)N1CCc2ncnc(N3CCOCC3)c2CC1	64
66	CC(=O)N1CCCC(Cc2cncc(Br)c2)CC1 (stereo not drawn)	26
67	O=C(NC[C@@H]1CCNC[C@H]1O)c1ccc2c(c1)CCO2	10
68	C[C@@H]1CN([C@@H](C)CO)S(=O)(=O)c2ccc(-c3cncnc3)cc2O[C@@H]1CN(C)C(=O)NC1CCCC1	-48
69	CCn1cc2c(n1)CN(S(=O)(=O)N(C)C)CC2COC (stereo not drawn)	-55
70	CCN1C(=O)CCc2cc(C(=O)NC3CCCCC3)ccc21	68
71	CCOC(=O)N1CCC2(CC1)OC(=O)C(C)=C2C(=O)Nc1ccc(F)cc1F	69
72	Brc1ccc(SCCc2nc3ccccc3o2)cc1	-1
73	CCN(C)c1ncnc2c1CCN(C(=O)c1ccc3[nH]ccc3c1)CC2	-48
74	Cc1cc(/C=C/C#N)cc(C)c1Nc1ccnc(Nc2ccc(C#N)cc2)n1	-8
75	c1ccc(CN2CCC(Cn3ccnc3C3CC3)C2)cc1 (stereo not drawn)	3

# (next part)
entry	SMILES	Tg IFNy HTS
76	CCN1CCCC1CN(Cc1cccs1)CC1CCOC1 (stereo not drawn)	-12
77	Cn1nc(-c2cccnc2)c2c1NC(=O)CC2c1ccnn1-c1ccccc1 (stereo not drawn)	43
78	Cc1noc(C)c1CN(C)Cc1ccccc1C(=O)O	-45
79	O=C(CC1NC(=O)N(C2CCCCC2)C1=O)NC(c1ccncc1)c1cccs1 (stereo not drawn)	-46
80	CCNc1ncc(C(=O)N2CCCCC2CN2CCOCC2)cn1 (stereo not drawn)	-2
81	COc1cc(OC)nc(N2CC(c3ccccn3)C2)n1	-3
82	Cc1nc2ccccn2c1CC(=O)Nc1ccc(C2CCc3nncn3C2)cc1 (stereo not drawn)	4
83	CCS(=O)(=O)N1CCC2(CC1)OC(=O)C(C)=C2C(=O)NCCC1=CCCCC1	11
84	Clc1ccc(OCCCCn2nnc3ccccc32)cc1	-42
85	Cc1noc(C)c1CN1CCOc2c(O)cc(-c3cccc(Cl)c3)cc2C1	-74*
86	CC=Cc1ccc2n(c1=O)C[C@H]1[C@H](CO)[C@@H](C(=O)N[C@@H](C)c3ccccc3)[C@@H]2N1Cc1cncnc1 (mixture of isomers)	-2
87	O=C(c1nc2ccc(Cl)cn2c1CN1CC=CC1CO)N1CCCCCCC1 (stereo not drawn)	0
88	CC1(C)CC(=O)c2cnc(NC(=O)C3CCCC3)nc2C1	40
89	Cc1csc(CCc2nc(C)cs2)n1	4
90	CC(C)NC(=O)Nc1ccc2c(c1)C(=O)N([C@H](C)CO)C[C@H](C)[C@@H](CN(C)C(=O)C1CCCCC1)OCCCC[C@H](C)O2	107
91	CC(C)c1cc(C2CCN(C(=O)Cc3c[nH]c4ccccc34)CC2)[nH]n1	6
92	CCOc1ccc(NC(=O)C2=C(C)C(=O)OC23CCN(Cc2ccccc2)CC3)cc1	30
93	CCOc1ccc(NC(=O)N2CCC3(CC2)Nc2cc(F)ccc2-n2cccc23)cc1	312
94	COc1cccc(-c2nc3c(s2)CN(S(=O)(=O)c2c(C)cc(C)cc2C)CC3)c1	-98*
95	NCc1ccccc1COc1ccccc1	13
96	O=C(CCCc1nc(-c2ccncc2)no1)N1CCCC2(CCNCC2)CC1	u
97	CC(C)(C)c1ccc(OC(=O)c2cccc(C(=O)Oc3ccc(C(C)(C)C)cc3)n2)cc1	33
98	NC(=O)C1CCN(C2CC(=O)NC2=O)CC1 (stereo not drawn)	10
99	CCc1nc(-c2c(-c3ccccc3)ncn2CC(C)(C)N2CCOCC2)c(C)[nH]1	4
100	Cc1ccc(CSC2=Nc3ccccc3C3=NC(CCC(=O)NCc4cccs4)C(=O)N23)c(C)c1 (stereo not drawn)	-17
101	Cc1nn(-c2ccccc2)nc1C(N)=O	-8
102	Cc1cnc(CN(C)C(=O)CCC(=O)NC2CCCC2)[nH]1	-33
103	O=C1CCC2C(CCN2c2ncc(F)cn2)N1c1cccnc1 (stereo not drawn)	-2
104	O=C(c1cc2cccnc2n(Cc2ccccc2)c1=O)N1CCCCCC1	10
105	Cc1ccc(F)cc1NC(=O)c1c(O)c2cccnc2n(-c2ccc(F)cc2)c1=O	47
106	COc1ccccc1NC(=O)c1nnn(Cc2nc(-c3cccc(Cl)c3)oc2C)c1C	-4
107	CCCc1nc(CN(CC)C(=O)c2cccnc2C)no1	28
108	Cc1ccccc1CNC(=O)c1cc2cc(S(=O)(=O)N(C)C)ccc2n1Cc1ccncc1	9
109	CO[C@@H](CN(C)S(=O)(=O)c1ccc(F)cc1)[C@@H](C)CN(Cc1ccccc1Cl)[C@H](C)CO	13
110	CC(C)c1ncc(C(=O)N2CCC(CC(=O)O)CC2)cn1	4
111	COc1ccc(NC(=O)C(=O)NCCc2csc(-c3ccc(C(F)(F)F)cc3)n2)cc1OC	51
112	Cc1nc(N2CCCC2)nc2c1CCN(C(=O)c1ccoc1C)CC2	-1
113	CCOc1ccccc1NC(=O)c1nnn(Cc2nc(-c3ccccc3)oc2C)c1C	150
114	COc1cccc(CN(Cc2n[nH]nc2-c2ccccc2)CC2CCCO2)c1 (stereo not drawn)	21
115	O=C(COc1ccccn1)Nc1cccc(CCc2ccncc2)c1	-25
116	C[C@H]1CN([C@@H](C)CO)C(=O)CCCn2nncc2CO[C@@H]1CN(C)Cc1cccc2c1OCCCO2	95
117	O=C(c1ccccn1)C1CCCN(S(=O)(=O)NCc2ccccc2)C1 (stereo not drawn)	-4
118	Cc1nn2c(COc3ccc(NS(=O)(=O)c4ccccc4)cc3)nnc2c2ccccc12	4
119	C[N@+]12CCCC[C@@H]1CCC(=C(c1cccs1)c1cccs1)C2	4
120	CN(C)CC(=O)N[C@@H]1CC[C@H](CCNC(=O)C2CCC2)O[C@@H]1CO	-21

# Source: PubChem BioAssay (Broad Institute)

# The list is partial; count on the stated rates, not on these rows.
